2A Renilla = lowers the Renilla signal of an FMDV 2A StopGo reporter. HEK cells with a luciferase reporter of 2A StopGo recoding. Potency, µM (top dose mostly 57.5 µM), without a hit: top-dose signal change, negative = less light. actives 0.32% (n = 120,000); active means well fitted falling curve with a large enough effect; inconclusive means small, poorly fitted or top-dose-only effect; inactive means no such curve, though single readings can be large or run the other way; note: nearly all actives have a fitted effect of over 55% in size; overnight with compound
2A firefly = FMDV 2A StopGo reporter, firefly signal. HEK cells with a luciferase reporter of 2A StopGo recoding. Potency, µM (series often up to 57.5 µM), for the others: at the highest dose signal change, negative = less light. actives 0.23% (n = 120,000); active = well fitted falling curve with a large enough effect; inconclusive = small, poorly fitted or top-dose-only effect; inactive = no such curve, though single readings can be large or run the other way; note: nearly all actives have a fitted effect of over 60% in size; overnight with compound
Active calls of the source: *; u = inconclusive; [ ] = dose if it differs, or a comment. % is set by controls: 0 for no effect and ±100 for the full control effect; potency is the fitted concentration of half-maximal effect.

The first 2 entries, to show the layout:
Under each structure – 2A Renilla	2A firefly
CN(CC(=O)NC(=O)NC1CCCC1)Cc1ccc(C(=O)NCC(F)(F)F)cc1
  17.4%	9.2%
CNC(=O)c1nn(CC(=O)N(CCc2ccccc2)Cc2ccccc2)c(=O)c2ccccc12
  u	u

Results, previewed entries included:
Under each structure – 2A Renilla	2A firefly
CN(CC(=O)NC(=O)NC1CCCC1)Cc1ccc(C(=O)NCC(F)(F)F)cc1
  17.4%	9.2%
CNC(=O)c1nn(CC(=O)N(CCc2ccccc2)Cc2ccccc2)c(=O)c2ccccc12
  u	u
CCc1nnc(SCc2cccc(Cl)c2)c2cc3sccc3n12
  u	0.0%
Cc1ccccc1OCCN1C(=O)C(=O)c2cccc(C)c21
  1.5%	4.3%
Cc1ccc2[nH]c(CSc3nnc(NC(=O)c4ccc(Cl)cc4)s3)cc(=O)c2c1
  -11.4%	22.1%
O=C(c1ccccc1)c1ccccc1NC(=O)c1ccccc1C(=O)O
  -0.9%	1.4%
COc1cccc(NC(=O)C2CCN(S(=O)(=O)c3cccc4nonc34)CC2)c1
  5.4%	-0.8%
COc1ccc(C(=O)C(C)OC(=O)c2cc(C)nc3ccccc23)cc1 (stereo not given)
  0.0%	62.1%[activator]
COC(=O)c1sc2cccc(F)c2c1S(=O)(=O)N1CCN(c2cccc(C)c2C)CC1
  10.4%	6.4%
O=C(O)CCSc1sc(=S)sc1SCCC(=O)O
  3.8%	-4.0%
Cc1ccc(CN2CCSc3ccc(C(=O)NCC(C)c4ccccc4)cc32)cc1 (stereo not given)
  147.6%[activator]	47.1%[activator]
O=C(NCCSCc1cccs1)C1CCCC1
  64.3%[activator]	52.8%[activator]
CCc1cc(C(=O)NC(C)c2ccccc2)sc1C (stereo not given)
  14.4%	12.5%
CCc1cc(=O)oc2cc(OCC(=O)NCCCN3CCCC3=O)c(Cl)cc12
  -4.2%	1.8%
CCCCCCCc1ccc(-c2ccc(OC(F)(F)F)cc2)nc1
  -10.8%[1.06 µM]	-5.4%
O=C(NCCCN1CCN(c2ccccc2F)CC1)C1COc2ccccc2C1 (stereo not given)
  4.1%	-7.2%
Cc1ccc(-c2cnc(SCC(=O)Nc3ccccc3C)o2)cc1C
  2.0%	18.2%
COc1ccc(NC(=O)c2nnn(Cc3nc(-c4cc(OC)c(OC)c(OC)c4)oc3C)c2C)cc1Cl
  -9.2%	2.2%
Cc1ccc(CSC2=Nc3ccccc3C3=NC(CC(=O)NC4CCCCC4)C(=O)N23)c(C)c1 (stereo not given)
  79.6%[activator]	47.0%[activator]
Cc1ccc(C(C)C)c(OC(C)C(=O)NCC2(N(C)C)CCCCC2)c1 (stereo not given)
  -4.0%	-9.2%
COc1cc(OC)c(C(=O)Nc2ccc3nc(N4CCCC4)sc3c2)cc1OC
  5.4%	23.0%
CCOc1cc(C(=O)Nc2ccc(-c3nnc4n3CCCCC4)cc2)cc(OCC)c1OCC
  37.5%[activator]	0.0%
CC(C)c1ccc(OCC(=O)Nc2c(C(=O)c3ccc(F)cc3)oc3ccccc23)cc1
  -10.5%	-13.3%
Cc1cc(C(=O)Cn2c(Cl)nc3c2c(=O)n(C)c(=O)n3C)c(C)n1C
  14.6%	34.8%[activator]
COc1ccc(CC(=O)NCC(c2cccs2)S(=O)(=O)c2ccc(F)cc2)cc1 (stereo not given)
  30.2%	0.6%
Cc1c(Cl)cccc1NC(=O)CCC(=O)c1cccs1
  13.6%	38.9%[activator]
COC(=O)c1[nH]c2ccccc2c1NC(=O)c1c(F)cccc1F
  20.5%	0.0%
CCOc1ccccc1NC(=O)C(=O)c1c[nH]c2ccccc12
  1.6%	106.0%[activator]
O=C(Cn1nc(C(=O)O)c2ccccc2c1=O)Nc1ccc(F)c(F)c1F
  1.5%	3.4%
CC(C)(C)C(=O)Nc1ccc2c(c1)CCC2
  7.0%	97.8%[activator]
O=C(O)c1ccc(OCC2CCCCC2)cc1
  6.1%	0.0%
COc1cc(CN(C(=O)COc2ccc(Br)cc2)c2ccccn2)cc(OC)c1OC
  22.4µM*	-42.4%
Oc1ccc2c3c1O[C@H]1[C@@H](O)C=C[C@H]4[C@@H](C2)NCC[C@@]341
  -14.8%[129 µM]	-12.3%[27 µM]
Cc1ccccc1OCC(=O)Nc1sc2c(c1C(=O)OC(C)C)CCCC2
  -14.4%	-16.0%
O=C(Nc1ccc(F)c(Cl)c1)C1CCN(C(=O)c2ccc(F)cc2)CC1
  -15.4%	-23.0%
CC(C(=O)Nc1cc(Cl)cc(Cl)c1)N1CCN(c2ccc(O)cc2)CC1 (stereo not given)
  1.8%	4.0%
Cc1ccc(NC(=O)CN2c3ccc(S(N)(=O)=O)cc3CC2C)cc1 (stereo not given)
  28.2%	10.1%
CCN1CCN(c2oc(COc3ccc(F)cc3)nc2C#N)CC1
  -10.7%	13.1%
Cc1cccc(NC(=O)Cn2nc(-c3cccc([N+](=O)[O-])c3)c3ccccc3c2=O)c1
  -15.3%	-0.7%
COc1ccc(CN(C)c2ccc(-c3nc(C)no3)cc2[N+](=O)[O-])cc1
  u	u
CCOC(=O)c1ccc(NC(=O)C2CC(=O)NC(N3CCN(c4ccccc4)CC3)=N2)cc1 (stereo not given)
  -4.2%	0.5%
CC(O)c1cccc(Oc2ncnc3sc(-c4ccccc4)cc23)c1 (stereo not given)
  25.6%	94.7%[activator]
COc1ccc2cnn(CC(=O)Nc3ccc(Cl)cc3Cl)c(=O)c2c1OC
  2.5%	7.7%
CCOC(=O)N1CCN(C(=O)c2cc3occc3n2Cc2ccccc2Cl)CC1
  -9.9%	-10.8%
Cc1ccc(C)c(Nc2nc3c(S(=O)(=O)c4ccc(C(C)C)cc4)nnn3c3ccsc23)c1
  0.6%	-15.2%
O=C1C2=C(Nc3ccccc3SC2c2ccc(O)cc2)c2ccccc21 (stereo not given)
  243.2%[activator]	1.6%
CCc1ccc(NS(=O)(=O)c2ccc3[nH]cc(C(=O)N4CCCCCC4)c(=O)c3c2)cc1
  20.3%	-12.4%
COc1ccc2c(C)c(CC(=O)NCc3ccco3)c(=O)oc2c1
  7.0%	33.4%[activator]
CCCN1CCN(CC2=C(C(=O)OCC)C(c3ccc(Cl)cc3)NC(=O)N2)CC1 (stereo not given)
  -9.3%	-15.9%
CCNC(=O)c1nnc(C(=O)Nc2cccc(Cl)c2)s1
  -2.8%	-1.0%
CCOC(=O)c1c(C)[nH]c(CCC(=O)Nc2cc(C)cc(C)c2)c1C
  -23.3%	27.2%
Cc1ccc(COc2ccc3ccccc3c2CNCC(O)c2ccccc2)cc1 (stereo not given)
  u	u
CCNC(=O)[C@@H]1CCCN1C(=O)[C@H](CCCN=C(N)N)NC(=O)[C@H](CC(C)C)NC(=O)CNC(=O)[C@H](Cc1ccc(O)cc1)NC(=O)[C@H](CO)NC(=O)[C@H](Cc1c[nH]c2ccccc12)NC(=O)[C@H](Cc1cnc[nH]1)NC(=O)[C@@H]1CCC(=O)N1
  33.5%[activator]	21.9%
C/C(=N\NC(=O)c1ccc(C(C)(C)C)cc1)c1ccc2ccccc2c1
  -14.0%	2.2%
CC(C)(C)OC(=O)N1CCC(c2c(C(=O)NCc3ccccc3)cnn2-c2cccc(F)c2)CC1
  46.5%[activator]	-18.7%
COc1ccccc1C1CC(c2ccc(Br)cc2)=NN1CN1C(=O)C(=O)c2ccccc21 (stereo not given)
  -1.2%	103.0%[activator]
CCOC(=O)CN(Cc1cccs1)CC1CCCO1 (stereo not given)
  -6.1%	-8.2%
O=C(N/N=C/c1ccc(Cl)s1)c1ccc2ccccc2c1
  99.8%[activator]	96.8%[activator]
O=C(NCC(c1cccnc1)N1CCOCC1)C(=O)Nc1ccc(F)cc1 (stereo not given)
  -9.5%	60.4%[activator]
CCOc1ccc(CC(=O)Nc2cccc(-c3nc4cccnc4s3)c2C)cc1
  -10.4%	-10.1%

Further entries:
Under each structure – 2A Renilla	2A firefly
CNC(=O)C1CCC(Cn2c(=O)c3sccc3n(CC(=O)N3CCCC3)c2=O)CC1 (stereo not given)
  -7.1%	4.8%
CCOCCCn1c(=N)c(S(=O)(=O)c2ccc(C)cc2)cc2c(=O)n3ccccc3nc21
  7.7%	19.1%
O=S(=O)(Nc1nc2ccccc2nc1NC1CC1)c1ccccc1
  15.6%	9.6%
CCOc1ccc(NC(=O)CCc2nc3cccnc3n2-c2ccccc2)cc1
  7.3%	4.8%
COc1ccc(-c2nc(S(=O)(=O)c3ccc4c(c3)OCCO4)c(N(C)C)o2)cc1OC
  3.0%	5.1%
CN(/C=C/C(=O)C(F)(F)F)CC(=O)O
  -17.6%	-2.7%
CC(C)c1ccc(CCC(=O)NC2CC(C)(C)NC(C)(C)C2)cc1
  -6.5%	0.0%
O=C(NCCC1=CCCCC1)C12CC3CC(CC(C3)C1)C2
  -3.1%	1.0%
COc1ccc(C(C#N)(CCC#N)C(C)C)cc1OC (stereo not given)
  11.5%	5.9%
CC1CCN(c2ccc(NC(=O)C(Cc3ccccc3)NC(=O)c3cccs3)cc2)CC1 (stereo not given)
  11.6%	16.0%
COc1ccccc1Nc1nc(-c2ccccc2)cs1
  4.2%	201.0%[activator]
CC(C)c1nn2c(=O)cc(COC(=O)c3ccc(NC(=O)COc4ccccc4)cc3)nc2s1
  -6.8%	-7.8%
O=C(COc1ccc(F)cc1)Nc1ccc(Cl)c(-c2nc3ccccc3[nH]2)c1
  -28.2%	-19.9%
CC(C)(CN)C12CC3CC(CC(C3)C1)C2
  -8.9%	-9.1%
CC(C)(C)CC(C)(C)NCCc1ccccc1
  -19.5%	-12.0%
COc1ccc(-c2cc(C(=O)Nc3ccn(Cc4ccc(C)cc4)n3)no2)cc1OC
  -12.8%	-7.0%
CCOc1ccccc1CNC(=O)c1ncoc1-c1cccc(OC)c1
  -0.5%	5.6%
CC(=O)c1ccc(N2CCN(C(=O)CCc3nnc4n(C)c(=O)c5sccc5n34)CC2)cc1
  -3.3%	-5.0%
CCOc1ccccc1CN1CCc2nc(N3CCN(c4ccccc4F)CC3)ncc2C1
  u	u
COc1ccccc1CNC(=O)c1ccc2c(c1)nc(C)n2-c1ccc(Br)cc1
  11.3%	-12.2%
COc1cc(C(=O)N2CCN(c3nccs3)CC2)cc(Cl)c1OCC(C)C
  u	u
CCN(CC)C(=O)c1ccc2oc(CN3CCN(C(=O)Nc4cccc(F)c4)CC3)nc2c1
  12.0%	33.6%[activator]
N#Cc1cc2c(=O)n3ccccc3nc2n(-c2nnc(SCc3ccccc3F)s2)c1=O
  -4.8%	-14.0%
CCOC(=O)c1ccccc1NC(=O)NCc1c(-n2cccc2)sc2c1CCCC2
  -0.9%	1.8%
CCc1ccccc1NC(=O)Nc1ccc2c(c1)N(CC)C(=O)c1ccccc1S2
  31.5%[activator]	u
Cc1cc(C)cc(N(CC(=O)NCc2ccccc2Cl)S(=O)(=O)c2c(C)noc2C)c1
  105.5%[activator]	-12.8%
O=C(NCC1(N2CCOCC2)CCCCC1)c1cccc(NC(=O)c2cccs2)c1
  65.9%[activator]	0.0%
COc1ccc(OC)c(-c2cc3ccc(OS(C)(=O)=O)cc3oc2=O)c1
  u	u
Fc1ccccc1CSCc1ccc(-c2nc(-c3ccc4c(c3)OCO4)no2)o1
  -6.0%	0.0%
COc1cccc(C(=O)N(Cc2ccc(C)o2)C2CCS(=O)(=O)C2)c1 (stereo not given)
  -7.9%	-26.7%
CN(C)C(CNC(=O)c1nn(C)c(=O)c2ccccc12)c1cccs1 (stereo not given)
  34.0%[activator]	66.7%[activator]
Nc1ccc(C(=O)OCC(O)CO)cc1 (stereo not given)
  -4.7%	-6.9%[11.5 µM]
COc1ccccc1CCNC(=O)C(=O)NCC(c1ccco1)S(=O)(=O)c1ccc(F)cc1 (stereo not given)
  6.7%	u
Brc1ccc(-c2csc(NC3CC3)n2)cc1
  2.5%	157.4%[activator]
C=C(Cl)CN1CCN(c2cccc(C(F)(F)F)c2)CC1
  2.8%	-3.4%
O=C(CCCc1ccccc1)NCC1CCCO1 (stereo not given)
  15.6%	121.5%[activator]
CN1CCC(N(C)C(=O)c2nn(-c3ccccc3)c(=O)c3ccccc23)CC1
  2.0%	15.0%
COc1ccccc1N1CC(C(=O)NCCNC(=O)c2cn(C)c3ccccc23)CC1=O (stereo not given)
  5.5%	19.8%
CCCC/C=C1/[C@H](c2ccc(Cl)cc2)N(Cc2ccc3c(c2)OCO3)C2=N[C@H](c3ccccc3)CC(=O)N21
  13.1%	4.2%
Cc1ccc(CNC(=O)CSc2nc3cc([N+](=O)[O-])ccc3o2)cc1
  -1.9%	3.3%
Cc1cccc(CN2C(=O)c3ccccc3Sc3ccc(C(=O)NCCc4ccccc4)cc32)c1
  -6.6%	-8.1%
CC(=O)Oc1ccc2c(C)c(CC(=O)NC3CCS(=O)(=O)C3)c(=O)oc2c1 (stereo not given)
  -3.2%	-1.7%
COc1ccc(CCNC(=O)c2cc(-c3ccc(Cl)cc3)on2)cc1OC
  -15.4%	-4.3%
CCOc1ccc(-c2nnc(SCC(=O)Oc3ccccc3)o2)cc1
  -3.5%	3.55µM*
Cc1ccccc1N(Cc1cc(=O)[nH]c2ccccc12)C(=O)C(C)C
  -9.8%	-7.2%
COc1ccc(CCNC(=O)CN(c2cc(C(F)(F)F)ccc2Cl)S(C)(=O)=O)cc1OC
  19.4%	9.1%
Cc1ccccc1NC(=O)N(C)[C@H]1C[C@H]2c3[nH]c4c(-c5ccccc5)cccc4c3CCN2C[C@H]1[C@H](C)O
  3.8%	4.1%
COc1ccccc1N(CCC#N)C(=O)CSc1ncnc2sc3c(c12)CCC3
  u	u

Compound activity from PubChem BioAssay.
